# High-throughput results deposited in PubChem by several laboratories.
# Insulin prom inh – TRM-6 insulin promoter activity inhibition; AID 1273; inhibition, % at 2 µM; TRM-6 cells (human fetal islet line), insulin promoter-eGFP reporter, imaging; reporter expression induced with tamoxifen; 130,000 tested, 0.9% active;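 active means inhibition above the mean plus 3 SD, with well images judged a real hit on visual review, cut at about 60% in these data, passing the limit was not always enough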
# GALR2 ag – agonists of human galanin receptor 2 (GALR2); O43603; GALR2-expressing cells, agonist activation read-out; 140,000 tested, 0.48% active; activation, %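 (tested at 5 µM)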; AID 803;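 active means above mean plus 3 SD of all compounds, about 5% in these data, not always enough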;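 further: 0% = vehicle buffer wells and 100% = reference agonist at full effect; tested in CHO reporter cells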
# Target sequence (O43603 whole entry, looked up): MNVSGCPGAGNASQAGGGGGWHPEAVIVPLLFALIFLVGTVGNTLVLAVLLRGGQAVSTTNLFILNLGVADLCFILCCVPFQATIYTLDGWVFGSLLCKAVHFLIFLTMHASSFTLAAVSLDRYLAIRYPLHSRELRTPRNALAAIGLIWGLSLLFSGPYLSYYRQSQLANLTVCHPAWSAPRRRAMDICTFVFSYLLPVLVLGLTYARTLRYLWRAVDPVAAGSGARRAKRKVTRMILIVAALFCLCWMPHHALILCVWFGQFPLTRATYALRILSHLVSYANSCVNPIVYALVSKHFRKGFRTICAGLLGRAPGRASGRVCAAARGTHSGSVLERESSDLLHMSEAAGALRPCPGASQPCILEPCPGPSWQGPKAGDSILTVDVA
# RGS16-Gao HTS – regulators of human RGS16-Galphao interaction; O15492+P09471; bead-based flow cytometry RGS16-Galphao binding, fluorescence; actives lie on both sides; binding response (% of control), % at 10 µM; 220,000 tested, 0.38% active; AID 1441;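 active means below 25% or above 175%, edge rows of some plates excepted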;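 further: Galphao activated by GDP with aluminum fluoride before binding; 100% = wells without compound and 0% = beads without RGS; some results beyond the cut were filed as inactive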
# HSV augment – increases HSV replication in cells; 220,000 tested, 0.005% active; maximum fold increase; HSV replication augmentation in cells, fold increase;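 active means peak rise of 1.5-fold or more in the series; tested in PC3 cells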;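 further: first round at 10 µM; read as green reporter fluorescence; hits show the peak of a series up to 25 µM; 1 = signal of infected wells without compound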
# PKD1 kinase inh – blocks activity of human protein kinase D1; PKD1 kinase fluorescence polarization assay; inhibition, %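 (about 10 µM by stock and volumes)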; 200,000 tested, 0.056% active;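 active means inhibition of 50% or more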;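 further: controls were vehicle for no effect and a reference inhibitor for full effect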
# Insulin prom inh cell count – further read-out of Insulin prom inh, marked with its call; normalized cell count, %; measured here: cell count, toxicity; reference of the scale not given here;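 cells exposed to compound for 48 h; stained nuclei by imaging scaled within each plate; lower means fewer cells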
# HSV augment primary fold – second read-out of HSV augment, no call of its own (marks repeat the call); fold increase; compound at 10 µM; measured here: primary screen fold increase 10 uM; tested in PC3 cells;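 GFP signal in the first replicate; 1 = infected wells without compound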
# Starred values were filed as active, the others as inactive; i = inactive; / = no result given.
# A first look:
SMILES,Insulin prom inh,Insulin prom inh cell count,GALR2 ag,RGS16-Gao HTS,HSV augment,HSV augment primary fold,PKD1 kinase inh
COc1ccc(CNS(=O)(=O)c2ccccc2Br)cc1,/,/,/,92,i,0.91,/
CC/C(C)=N/NC(=O)c1[nH]c2ccc(C)cc2c1-c1ccccc1,/,/,/,102,i,1.1,-3
COc1cc(C(=O)NCc2nnc(SCC(=O)N3CCc4ccccc43)o2)cc(OC)c1OC,11,47,-1.6,101,/,/,-5
COc1ccc(S(=O)(=O)NC(C)C(=O)O)cc1 (configuration not stated),-3,45,-1.2,96,i,1,-1
CCCOc1ccc2c(CC)cc(=O)oc2c1C,-7,62,-1.5,92,i,0.95,-2
c1ccc2c(c1)CCc1c-2nc2ccccc2c1N1CCOCC1,/,/,/,95,i,1.1,/

# The list itself, previewed entries included:
SMILES,Insulin prom inh,Insulin prom inh cell count,GALR2 ag,RGS16-Gao HTS,HSV augment,HSV augment primary fold,PKD1 kinase inh
COc1ccc(CNS(=O)(=O)c2ccccc2Br)cc1,/,/,/,92,i,0.91,/
CC/C(C)=N/NC(=O)c1[nH]c2ccc(C)cc2c1-c1ccccc1,/,/,/,102,i,1.1,-3
COc1cc(C(=O)NCc2nnc(SCC(=O)N3CCc4ccccc43)o2)cc(OC)c1OC,11,47,-1.6,101,/,/,-5
COc1ccc(S(=O)(=O)NC(C)C(=O)O)cc1 (configuration not stated),-3,45,-1.2,96,i,1,-1
CCCOc1ccc2c(CC)cc(=O)oc2c1C,-7,62,-1.5,92,i,0.95,-2
c1ccc2c(c1)CCc1c-2nc2ccccc2c1N1CCOCC1,/,/,/,95,i,1.1,/
COc1ccc(-c2nc3oc4cc(OC)ccc4c(=O)c3c(=O)n2Cc2ccco2)cc1,0,52,1.2,88,i,0.87,-11
O=C(Nc1nc2ccccc2s1)C1CC(=O)N(c2ccc(Cl)cc2)C1 (configuration not stated),-25,94,-0.9,98,i,0.95,-2
CCCc1nnc(NC(=O)c2cccc(OC)c2)s1,47,105,0.1,102,i,0.86,-23
COC(=O)N/N=C/c1ccc(/C=N/NC(=O)OC)cc1,11,154,/,105,i,0.98,4
O=C(NCCCN=C1NS(=O)(=O)c2ccccc21)c1ccc(S(=O)(=O)N2CCCCC2)cc1,42,76,-2.5,84,i,0.87,-3
C=CCn1c(SCC(=O)Nc2c(C)n(C)n(-c3ccccc3)c2=O)nc2sc(C)c(-c3ccccc3)c2c1=O,-54,84,0.1,98,i,1,4
Oc1ccc(N=Cc2cc(Br)c(N3CCOCC3)o2)cc1,32,126,-0.8,91,i,1.1,-2
Cc1cc(CN(C)C(=O)c2cc(COc3ccc4ncccc4c3)on2)on1,/,/,/,97,i,0.95,1
COc1cc(C(=O)OCCCN(C)C)cc(OC)c1OC,/,/,/,95,i,1,/
COc1ccc(C(=O)OCn2nnc3ccccc3c2=O)cc1OC,28,91,-1.4,82,i,0.99,-4
COC(=O)C1CCN(c2cc(=O)n(-c3ccc(OC)cc3)c(=O)[nH]2)CC1,/,/,-0.4,162,i,0.73,-10
O=C(CCCc1nc2ccccc2s1)NCc1cccnc1,-75,91,/,89,i,0.85,-8
CC1CC(C)CN(CCCNC(=O)c2ccc3c(c2)NC(=O)C(N2CCCCC2)S3)C1 (configuration not stated),-357,45,-0.4,102,i,1,-5
O=c1[nH]c2sc3c(c2c2nncn12)CCCC3,/,/,-1.4,107,i,1.2,5
COCc1cc(C)nc2sc3c(=O)oc(C)nc3c12,18,41,-0.1,99,/,/,0
CCOC(=O)N1CCC(NC(=O)c2ccc3c(c2)sc2nc(-c4ccccc4)cn23)CC1,/,/,-0.9,97,i,0.79,-9
COC(=O)CN(Cc1ccco1)S(=O)(=O)c1ccccc1,28,129,-3.0,98,i,0.88,-4
CCOc1ccc(C2c3c(oc4ccccc4c3=O)C(=O)N2CCCN2CCOCC2)cc1OCC (configuration not stated),/,/,-1.8,99,i,0.89,-8
CC(=O)Nc1ccc(NC(=O)CCCc2c[nH]c3ccccc23)cc1,-85,141,/,102,i,0.89,-6
O=S(=O)(c1cc(Cl)ccc1Cl)n1cccn1,/,/,/,94,i,1.1,-9
COc1ccc(CNCCC2(C(C)C)CCOC(C)(C)C2)cc1 (configuration not stated),/,/,/,100,i,0.99,/
Cc1nc(-c2ccccc2)sc1-c1ccn[nH]1,/,/,/,93,i,1,-4
COCCN1C(=O)N[C@H](c2cccc(C(F)(F)F)c2)C(C(=O)OC)=C1C,19,81,-2.9,109,/,/,-2
Cc1ccccc1CS(=O)(=O)CCC(=O)NCCCN1CCOCC1,-177,48,-1.6,99,/,/,1
Cc1cccc(-c2noc(-c3ccc4c(c3)OCO4)n2)c1,/,/,/,103,i,1.1,-2
CC(/C=C1\N=C(SCc2ccccc2)SC1=O)=C\c1ccccc1,19,133,-0.4,96,i,1.1,-18
Cc1ccc(/C=C2/C(=O)N(c3ccccc3)C(=S)N2C)o1,-8,145,-0.8,94,i,0.95,-3
CCOc1ccc(/C=N/NC(=O)CN2CCCCCCC2)cc1,54,68,/,101,i,1.1,-5
O=C(CCCN1C(=O)/C(=C/c2cccs2)SC1=S)NNC(=O)c1ccc(F)cc1,/,/,-1.4,103,/,/,-1
Cn1nc(C(F)(F)F)c2cc(C(=O)Nc3ccc(Cl)cc3)sc21,-18,96,-0.5,109,i,0.92,5
Cc1cccc(N2C(=O)/C(=C\c3ccc(C(=O)O)cc3)c3ccccc3C2=O)c1,-45,138,/,105,i,1,-9
Cc1ccc(CNC(=O)c2ccc(CNc3c(N4CCCC4)c(=O)c3=O)cc2)cc1,/,/,-2.2,103,i,0.96,-2
CC(C)(C(=O)c1ccccc1)/[N+]([O-])=C/c1ccc(Br)cc1,7,95,-2.9,/,i,1.1,-5
O=C1NC[C@@H](Cc2ccc(O)cc2)N(CC2CCCCC2)C1=O,/,/,/,107,i,0.98,/
Cc1cccc(NC(=O)Nc2cccc(C#N)c2)n1,29,137,-0.4,101,i,1.1,6
CCCC(c1nnnn1C(C)(C)C)N1CCN(C(=O)c2ccco2)CC1 (configuration not stated),/,/,/,103,i,0.99,5
Cc1ccccc1NC(=O)C(c1ccccc1)C1CCCC1 (configuration not stated),/,/,-3.0,68,i,1.1,-7
N#C/C(=C\c1ccco1)C(=O)NCc1ccccc1,45,101,/,110,i,1.1,-1
COc1ccc(-c2csc(N(Cc3ccccc3)C(=O)COc3ccc(Cl)cc3)n2)cc1,35,29,-0.9,101,i,1,-7
CC(C)CC(NC(=O)C1CCCN1C(=O)OC(C)(C)C)C(=O)NCC(N)=O (configuration not stated),/,/,-1.5,101,i,0.98,2
COc1ccc(NS(=O)(=O)c2cn(C)c(=O)n(C)c2=O)c(OC)c1,/,/,/,102,i,0.83,/
CN1CCN(/C=C2\SC(=S)NC2=O)CC1,-7,99,-2.1,99,i,0.92,2
CN(C)S(=O)(=O)c1ccc(Cl)c(C(=O)Nc2nc3ccccc3[nH]2)c1,15,97,/,97,i,0.87,-5
Fc1cccc2sc(N3CCCC3)nc12,/,/,/,101,i,0.97,0

# Next entries
SMILES,Insulin prom inh,Insulin prom inh cell count,GALR2 ag,RGS16-Gao HTS,HSV augment,HSV augment primary fold,PKD1 kinase inh
COc1ccc(Nc2c(-c3ccc(OC)cc3)nc3cnccn23)cc1,42,112,/,114,i,0.96,0
CCCN1CNc2c(c(=O)[nH]c(=S)n2CCc2ccc(OC)c(OC)c2)C1,-78,94,/,99,i,1.1,-1
CCOC(=O)Cc1csc(NC(=O)CN(C)S(=O)(=O)c2cccc3cccnc23)n1,/,/,/,115,i,1.1,-2
C#CCOCCOCCOCCNc1nc(N2CCN(C(=O)[C@H]([C@@H](C)CC)n3cc([C@@H](N)CC(C)C)nn3)CC2)nc(N2CCN(C(=O)[C@H](CCCCN)n3cc([C@@H](N)C(C)CC)nn3)CC2)n1 (some centres not stated),/,/,/,94,i,0.95,-12
COc1cccc(C2Nc3ccccc3C(=O)N2O)c1O (configuration not stated),-7,103,-1.1,92,i,1,5
CCOC(=O)C1(Cc2ccccc2C(F)(F)F)CCN(Cc2ccon2)CC1,/,/,/,101,i,1,/
O=C(NCc1cccs1)c1noc2c1CCCCC2,/,/,-1.6,103,i,0.97,-2
O=C(Nc1cc(Cl)ccc1Cl)c1noc2c1CCCC2,/,/,/,85,i,0.88,/
OCCC1CN(Cc2ccon2)CCN1CCc1ccccc1 (configuration not stated),/,/,/,98,i,0.92,-1
OC(COCc1ccco1)CN1CCN(C(c2ccccc2)c2ccccc2)CC1 (configuration not stated),-129,126,-0.4,101,i,0.94,0
O=C(CN1CCOCC1)Nc1ccc(Br)cn1,18,125,-2.1,118,i,0.83,1
CCc1ccc(C(=O)Cn2cnc3cc([N+](=O)[O-])ccc3c2=O)cc1,/,/,/,97,i,0.88,/
CSc1nc2ccc3nc(NC(=O)C4COc5ccccc5O4)sc3c2s1 (configuration not stated),/,/,-0.2,103,i,0.88,-4
CSc1nsc(N/N=C/c2ccccc2)c1C#N,-31,127,/,101,i,0.93,3
Cc1ccc(-c2cc(N)on2)cc1,-15,71,-1.6,100,i,1.1,-7
Nc1ccc(SCc2nc3cccc4c3n2CCC4)cc1,/,/,/,98,i,1.2,/

# 3 structures from above, arranged by length of the SMILES, highest first:
SMILES,Insulin prom inh,Insulin prom inh cell count,GALR2 ag,RGS16-Gao HTS,HSV augment,HSV augment primary fold,PKD1 kinase inh
CCc1ccc(C(=O)Cn2cnc3cc([N+](=O)[O-])ccc3c2=O)cc1,/,/,/,97,i,0.88,/
CSc1nc2ccc3nc(NC(=O)C4COc5ccccc5O4)sc3c2s1 (configuration not stated),/,/,-0.2,103,i,0.88,-4
CSc1nsc(N/N=C/c2ccccc2)c1C#N,-31,127,/,101,i,0.93,3
